High-throughput results: PubChem, Johns Hopkins Ion Channel Center
KCNQ2 enhance – potentiators of rat KCNQ2 potassium channel; Potassium voltage-gated channel subfamily KQT member 2 (Rattus norvegicus), O88943; CHO-K1 KCNQ2, FluxOR thallium flux fluorescence; active compounds read high; B-score at 10 µM; 0.54% of 310,000 active; AID 2239, 2010;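 active means fluorescence ratio B-score at least 3 SD of library B-scores, with initial fluorescence B-score within 3 SD, cut at about 5.3 in these data; same plate scores as AID 2156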;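 further: B-score of peak minus minimum over baseline fluorescence ratio after K+ and Tl+ stimulus; positive B-score means potentiation of KCNQ2 with more thallium influx and brighter signal; only the inactives scoring about 0 or higher are listed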
Target sequence (O88943 whole entry, looked up): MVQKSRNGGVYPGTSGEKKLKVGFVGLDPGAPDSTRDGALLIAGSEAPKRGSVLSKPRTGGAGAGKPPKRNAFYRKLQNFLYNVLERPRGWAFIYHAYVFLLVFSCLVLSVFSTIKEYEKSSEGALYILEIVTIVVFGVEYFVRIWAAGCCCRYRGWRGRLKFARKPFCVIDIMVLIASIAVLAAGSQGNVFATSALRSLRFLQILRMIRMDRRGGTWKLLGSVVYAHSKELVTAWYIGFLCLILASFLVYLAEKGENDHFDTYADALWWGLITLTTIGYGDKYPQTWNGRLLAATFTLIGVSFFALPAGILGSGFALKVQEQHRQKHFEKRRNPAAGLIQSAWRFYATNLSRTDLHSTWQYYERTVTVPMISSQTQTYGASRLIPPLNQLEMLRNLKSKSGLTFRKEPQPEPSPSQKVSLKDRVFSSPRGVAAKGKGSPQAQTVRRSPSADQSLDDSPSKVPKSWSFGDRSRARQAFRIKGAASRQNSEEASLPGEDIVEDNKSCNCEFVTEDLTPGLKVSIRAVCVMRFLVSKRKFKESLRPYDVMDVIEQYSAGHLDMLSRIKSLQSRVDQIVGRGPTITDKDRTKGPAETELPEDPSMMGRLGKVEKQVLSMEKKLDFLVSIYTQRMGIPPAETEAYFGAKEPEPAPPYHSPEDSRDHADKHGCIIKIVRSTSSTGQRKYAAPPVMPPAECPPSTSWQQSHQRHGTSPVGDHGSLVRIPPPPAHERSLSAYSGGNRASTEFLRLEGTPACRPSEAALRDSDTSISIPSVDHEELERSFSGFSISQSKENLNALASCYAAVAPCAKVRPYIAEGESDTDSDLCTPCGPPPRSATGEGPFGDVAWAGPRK
KCNQ2 enhance baseline – second read-out of KCNQ2 enhance, no call of its own (marks repeat the call); B-score; compound at 10 µM; measured here: initial fluorescence intensity artifact check;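 brightness before thallium and not channel activity; 0 = typical well and far values either way flag optical interference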
* marks the source's active call; other numbers are inactive results. An excerpt, so the mix of outcomes need not match the whole.

SMILES | KCNQ2 enhance | KCNQ2 enhance baseline
O=C(Nc1nnc(SCc2ccccn2)s1)C1CC(=O)N(c2ccc(F)cc2)C1 (stereo not given) | 0.2 | -2.2
COc1ccc(/C(N)=N/OC(=O)COc2ccccc2Cl)cc1 | 0.2 | -0.02
Cc1sc2nc(C3CC3)nc(SCC(=O)N3CCc4ccccc4C3)c2c1C | 0.94 | -0.02
COC(=O)c1csc(S(=O)(=O)N2CCCCC2)c1OC | 2.1 | -0.76
COc1ccc(CCNC(=O)COC(=O)C2CC2)cc1 | 0.4 | 0.84
COc1ccc(NC(=S)NC(=O)/C=C/c2ccc(F)cc2)cc1 | 1.3 | 0.2
CC(C)C(NS(=O)(=O)c1ccccc1F)C(=O)N1CCc2ccccc2C1 (stereo not given) | 0.04 | -0.07
CCCN(c1ccc(C)cc1)c1nc(=O)c2cccnc2s1 | 0.34 | 0.64
Cc1nn2c(=O)cc(COC(=O)c3ccc(S(=O)(=O)N4CCCCC4)cc3)nc2s1 | 0.04 | 0.16
COn1c(SCC(N)=O)nc2ccccc2c1=O | 0.44 | -0.82

Entries of single compounds from above. Order of values: KCNQ2 enhance, KCNQ2 enhance baseline
`CCCN(c1ccc(C)cc1)c1nc(=O)c2cccnc2s1` across the screens: 0.34, 0.64
`COc1ccc(/C(N)=N/OC(=O)COc2ccccc2Cl)cc1` across the screens: 0.2, -0.02

(continued)
SMILES | KCNQ2 enhance | KCNQ2 enhance baseline
Cc1[nH]c2ccccc2c1C(=O)CSC(=S)N(C)C | 0.37 | 1.4
Cc1ccc(-n2ncc3c(NNC(=O)c4ccco4)ncnc32)c(C)c1 | 0.12 | 0.31
CC(=O)c1nc(N2C(=O)CC(Cc3cccc(C)c3)C2=O)sc1C (stereo not given) | 0.29 | -1.9
O=C1CSC(=Nc2ccc(O)cc2)N1c1ccc(O)cc1 | 0.07 | 0.13
Cc1ccc(OCCCn2ccnc2)c([N+](=O)[O-])c1 | 0.74 | 1.4
CC(=O)Nc1cc(NC(C)=O)cc(C(=O)OC(C)C(=O)Nc2ccc(S(=O)(=O)N3CCCC3)cc2)c1 (stereo not given) | 0.72 | 1
CN(C)S(=O)(=O)c1ccc(NC(=O)CN2CCOCC2)cc1 | 1.1 | 0.39
Cc1ccc(S(=O)(=O)N(CC(=O)NCC2CCCO2)c2cccc([N+](=O)[O-])c2)cc1 (stereo not given) | 2.4 | -1.7
O=C(NCc1ccco1)c1cc2cc3ccc(Cl)cc3nc2o1 | 1.9 | -0.21
Cc1cc(C(=O)Nc2nc3c(C)cccc3s2)c(C)o1 | 0.06 | -1.8
O=C(Nc1ccc(-c2nc3ncccc3o2)cc1)c1ccc(Br)o1 | 0.06 | 0.05
O=C(N/N=C/c1ccncc1)c1cc2ccccc2o1 | 0.14 | 2.6
O=C(NC1CC(=O)N(c2cccc(F)c2)C1)N1CCN(C(=O)c2ccco2)CC1 (stereo not given) | 1.7 | 0.93
CCn1c(O)c(C=NC2CCCC2)sc1=S | 1.6 | -0.1
O=C(O)CSCC(=O)Nc1ccc(Br)c(C(F)(F)F)c1 | 0.32 | 0.01
CN1C[C@@H]2C[C@@H](c3cccn3-c3nccs3)N3CCC[C@@]23C1=O | 0.38 | -0.21
Cc1cc(C)c(NC(=O)C[N+](C)(C)CC(O)COc2cccc3ccccc23)c(C)c1 (stereo not given) | 1.7 | 1.9
CCOc1ccc(NC(=O)c2cc(=O)[nH]c3ccccc23)cc1 | 1.6 | 1.3
c1ccc2c(c1)OCCOCCOCCOCCOCCOc1ccccc1OCCOCCOCCO2 | 0.3 | -0.9
COc1ccc(S(=O)(=O)NCCC(C)C)cc1OC | 0.81 | 0.92
O=C(NCc1ccccc1)C1c2ccccc2Oc2ccccc21 | 0.34 | -0.14
COC(=O)CC(N)c1ccc(OC)c2ccccc12 (stereo not given) | 0.72 | -0.2
COc1ccc(NC(=O)c2ccc3nc(C)sc3c2)cc1 | 0.1 | 0.8
Cc1cc(Br)cc(C)c1OCC(=O)NNC(=O)CCC(=O)NCc1ccccc1 | 0.3 | -0.23
CC(CCCC(C)(C)O)NC(=O)c1cc(COc2ccc3ncccc3c2)on1 (stereo not given) | 0.37 | 2.7
N#CC(C#N)=Cc1cn(-c2ncc(C(F)(F)F)cc2Cl)c2ccccc12 | 0.97 | 0.03
COc1ccc(C(=O)CCC(=O)Nc2cccc(Cl)c2)cc1 | 0.29 | -0.06
CC(C)Cc1nc2oc3c(Cl)ncnc3c2c2c1CCC2 | 0.81 | -2
Cc1[nH]n2c(=O)c(C#N)c(-c3ccccc3)nc2c1-c1ccccc1 | 1.4 | 0.55
COc1ccccc1CNC(=O)C1CCC(CNS(=O)(=O)c2ccc(NC(C)=O)cc2)CC1 (stereo not given) | 0.04 | -0.8
CC(=O)Nc1cccc(NC(=O)CSc2ccc(C(F)(F)F)cc2[N+](=O)[O-])c1 | 1.1 | 0.16
CCOC(=O)c1cn(Cc2cccc(Cl)c2)c2cc(C)nn2c1=O | 0.83 | 0.01
Cc1cc(C)n(S(=O)(=O)c2ccc(C)c(C)c2)n1 | 0.06 | 0.61
CN(C)C(=O)c1ccc(NC(=O)COc2cccc(Oc3ccccc3)c2)cc1 | 0.42 | 0.28
Cc1cccc(CN2CCN(Cc3cccc4nonc34)CC2CCO)n1 (stereo not given) | 2.2 | -0.11
CN(C(=O)c1ccc(F)cc1)c1ccccc1C(=O)NCc1ccccc1 | 0.71 | 1.5
CC1Cn2c(nnc2-c2ccccc2O)S1 (stereo not given) | 0.42 | -3.8
O=C(CSc1ccc(-c2ccccn2)nn1)NCc1ccc(Cl)cc1 | 0.75 | -0.19
O=c1c2c3c(sc2nc(NCCO)n1-c1ccccc1)CCCC3 | 0.68 | -1.3
O=C(CSC1=NCCN1)NC1CCCCCC1 | 1.5 | -1.3
Cc1cc(NC(=O)CSc2nnc(-c3ccncc3)n2-c2ccccc2)no1 | 0.17 | 0.4
COc1cc(CNc2ccc3[nH]c(=O)[nH]c3c2)ccc1OCc1ccc(Cl)cc1 | 0.64 | -1.5
COc1ccc(C(=O)n2nc(C)cc2Nc2ccccc2)cc1 | 0.13 | 0.28
O=C(CN1CCN(c2ccc(F)cc2)CC1)c1ccc(O)cc1O | 1.8 | 2.4
CCC(NC(=O)CCl)c1ccc(C)cc1 (stereo not given) | 1.1 | -1.3
CCCCNc1nc2c(c(=O)n(C)c(=O)n2C)n1Cc1cccc(OC)c1 | 0.97 | -1.5
O=c1[nH]c2c(Br)cnc([N+](=O)[O-])c2[nH]1 | 0.8 | -0.45
CCCOc1ccccc1C(=O)N(Cc1cccs1)C1CCS(=O)(=O)C1 (stereo not given) | 0.94 | 0.9
O=C(CCN1C(=O)c2ccccc2C1=O)Nc1ccccc1C(=O)N1CCOCC1 | 0.04 | -0.24
COC(=O)CC1=Nc2ccccc2NC(=O)C1 | 0.87 | -0.89

The listing continues.
SMILES | KCNQ2 enhance | KCNQ2 enhance baseline
Cc1nc(SC2CC(=O)N(c3ccc([N+](=O)[O-])cc3)C2=O)nc2c1CCCC2 (stereo not given) | 1.1 | -1.7
CC(=O)C1=C(O)C(=O)N(Cc2ccco2)C1c1cccc(F)c1 (stereo not given) | 1.3 | -1.1
COc1cc(O)oc1C=Nc1ccc(C(=O)O)cc1 | 0.57 | -1.6
COC(=O)c1cc(C(=O)Nc2nnc(C3CC3)s2)cc([N+](=O)[O-])c1 | 2 | -0.05
COc1ccc(NC(=O)Nc2ccc(OCC(=O)N3CCOCC3)cc2)cc1OC | 1.3 | -0.95
Cn1ncc2c(N3CCC(Cc4ccccc4)CC3)ncnc21 | 1.8 | 1
Cn1c(NC(=O)c2ccc(F)cc2)nc2ccccc21 | 0.18 | -0.18
CCCN(CCc1ccccc1)C1CCc2c(O)cccc2C1 (stereo not given) | 0.16 | 0.91
CCN(Cc1ccccc1)C1CCN(Cc2ccc(SC)cc2)CC1 | 1.6 | -2
CCCCn1c(N)c(N2CCOCC2)c(=O)n(CC(=O)NCCc2ccccc2)c1=O | 0.25 | -0.7

3 structures already listed, arranged by count of non-hydrogen atoms, falling:
SMILES | KCNQ2 enhance | KCNQ2 enhance baseline
Cc1cc(C)c(NC(=O)C[N+](C)(C)CC(O)COc2cccc3ccccc23)c(C)c1 (stereo not given) | 1.7 | 1.9
N#CC(C#N)=Cc1cn(-c2ncc(C(F)(F)F)cc2Cl)c2ccccc12 | 0.97 | 0.03
CCN(Cc1ccccc1)C1CCN(Cc2ccc(SC)cc2)CC1 | 1.6 | -2

Other structures:
SMILES | KCNQ2 enhance | KCNQ2 enhance baseline
COc1ccc(C(=O)OCC(=O)Nc2nc3c(F)c(F)c(F)cc3s2)cc1OC | 0.01 | -0.7
O=C(COc1ccccc1[N+](=O)[O-])Nc1cccc(C(=O)Nc2ccccc2C(=O)O)c1 | 0.64 | -1.2
Cc1ccc(NC(=S)NC(=O)/C=C/c2ccc(Cl)cc2)cc1 | 1.3 | 0.17
COc1ccc(F)cc1S(=O)(=O)N1CCCN(S(=O)(=O)c2cc(F)ccc2OC)CC1 | 0.11 | -1.4
Cc1ccc(NC(=O)Cn2nc([N+](=O)[O-])c(Br)c2C)cc1C | 0.02 | -0.54
Nc1c(-c2ccccc2)c(CN2CCOCC2)nn1-c1ccc(F)cc1 | 0.54 | 0.82
O=C(c1ccc2c(=O)n(C3CCCC3)c(=S)[nH]c2c1)N1CCN(C2CCCCC2)CC1 | 0.53 | -0.08
Cn1c(/C=C/c2ccccc2)nc2ccccc2c1=O | 1.5 | -3
Cc1nc(-c2nc(-c3c(C(=O)NN)noc3C)cs2)cs1 | 0.41 | 0.54
COC(=O)c1c(C)[nH]c(C)c1C(C)=O | 1.3 | 0.75
Cc1cccc(NCc2nc3ccccc3n2C)c1 | 0.47 | -1.3
S=C(NCCNC(=S)Nc1ccccc1Cl)Nc1ccccc1Cl | 0.05 | 0
CCOC(=O)C1CCN(C(=O)c2cccc(S(=O)(=O)Nc3ccc(C)cc3C)c2)CC1 | 1.8 | -2.2
O=C(Cn1cnc2cc([N+](=O)[O-])ccc2c1=O)Nc1ccc2c(c1)CCC2 | 1.7 | 0
Cn1c(C(=O)OC(C(=O)NC(C)(C)C)c2cccnc2)cc2sccc21 (stereo not given) | 0.82 | -1.4
CCOC(=O)c1cnn(-c2ncnc3sc4c(c23)CCC4)c1N | 0.21 | -0.1
NNC(=O)c1ccccc1CO | 0.48 | -4.9
COc1ccc(C(=O)OCC2CC(c3ccccc3)=NO2)cc1OC (stereo not given) | 0.22 | -0.53
Cc1cccc(C)c1NC(=O)C1C2C=CC(C2)C1C(=O)O (stereo not given) | 0.57 | 0.38
Cc1nc(C)c(-c2ccc(SCc3ccc([N+](=O)[O-])cc3)nn2)s1 | 0.36 | 0

4 entries picked at random from the list so far:
SMILES | KCNQ2 enhance | KCNQ2 enhance baseline
COc1ccc(C(=O)OCC2CC(c3ccccc3)=NO2)cc1OC (stereo not given) | 0.22 | -0.53
Cn1c(C(=O)OC(C(=O)NC(C)(C)C)c2cccnc2)cc2sccc21 (stereo not given) | 0.82 | -1.4
Cc1nc(C)c(-c2ccc(SCc3ccc([N+](=O)[O-])cc3)nn2)s1 | 0.36 | 0
CCOC(=O)c1cnn(-c2ncnc3sc4c(c23)CCC4)c1N | 0.21 | -0.1

(next part)
SMILES | KCNQ2 enhance | KCNQ2 enhance baseline
Cc1ccc2nc(COc3ccc(N(C)S(=O)(=O)c4ccccc4)cc3)cc(=O)n2c1 | 0.4 | -1.2
CC(C)n1c(-c2ccccc2)nc(=S)c2c1CCCC2 | 0.43 | -0.3
CCOc1nc(C)nc(NC(=O)NS(=O)(=O)c2ccccc2Cl)n1 | 0.81 | -0.1
CCOC(=O)C(=CNc1cc(C)ccn1)C(=O)OCC | 0.05 | -0.5
COc1ccccc1-c1nnc(SCC(=O)Nc2ccccc2)o1 | 0.42 | -0.52
Cc1noc(NS(=O)(=O)c2ccc(NC(=O)CSc3nc4ccccc4[nH]3)cc2)c1C | 0.02 | -0.33
C=CCNC(=O)c1onc(CSc2ccccc2CC)c1C(=O)O | 0.06 | -0.53
O=C(COC(=O)CSCC(=O)N1CCCCC1)NCc1ccc(F)cc1 | 0.95 | -0.08
Cn1ccnc1-c1nc2ccccc2[nH]c1=O | 0.12 | -0.77
COc1ccc(NC(=O)c2ccc(C(=O)c3cc(OC)ccc3OC)cc2)cc1 | 0.61 | 3
O=C(NCC1CC1)c1ccccc1Cl | 0.16 | 0.05
O=C(O)C[C@H]1c2ccccc2S(=O)(=O)N1c1ccccc1 | 0.11 | 1.5
CCCCCNC(=O)c1ccc2c(=O)n(CC3CCCO3)c(=O)[nH]c2c1 (stereo not given) | 6.1* | 0.09*
COc1ccc(N2CCN(C3CC(=O)N(c4ccc5c(c4)OCCO5)C3=O)CC2)cc1 (stereo not given) | 0.05 | -0.76
CCCCNC(=O)Cc1ccc(Br)cc1 | 0.63 | -0.16
Cc1cccc(C(=O)NCc2nnc(SCc3ccc(F)cc3)n2C)c1 | 0.43 | 0.01
Cc1ccc(NC(=O)c2nc(S(=O)(=O)Cc3ccccc3)ncc2Cl)cc1 | 0.15 | -0.02
Cc1cccc(C)c1NC(=S)N=Nc1c(O)n(C)c2ccc(S(=O)(=O)N3CCOCC3)cc12 | 0.92 | -0.88
COc1ccc(S(=O)(=O)NC2CCCCC2)cc1C | 0.17 | 0.18
CCc1nc(SCC(=O)Nc2ccc(OC)cc2[N+](=O)[O-])n[nH]1 | 0.4 | -0.82
COc1ccc(-c2ccc(SCC(=O)c3ccc(F)cc3)nn2)cc1OC | 0.96 | -1
COCCOC(=O)c1c(NC(=O)CN2CCOCC2)sc(C(N)=O)c1C | 0.23 | 0.04
COc1cc(/C=C2\SC(=S)N(CCC(=O)Nc3ccccn3)C2=O)cc(OC)c1OC | 1.3 | -0.84
O=C(CC(C(=O)O)C1CCCO1)Nc1cccc(C(F)(F)F)c1 (stereo not given) | 1.9 | -0.02
Cc1nnsc1-c1nnc(SCC(=O)c2ccc(C#N)cc2)n1C1CC1 | 1.8 | -0.41
